From PubChem
KSHV LANA nucl: inhibitors of KSHV LANA binding to nucleosomes; FITC-LANA1-23 / chicken nucleosome fluorescence polarization; active compounds read low; z-score (test concentration not listed); actives 0.3% (n = 51,000);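 active = both repeat wells score below -2 in polarization z-score versus plate sample wells, excluding overly bright wells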;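 note: 100 nL library stock added to about 30 µL; numbers are from one replicate; some results filed as inactive read as strong as hits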
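test system = FITC-LANA peptide and chicken nucleosomes | amount = 240 nM purified chicken nucleosomes (480 nM peptide binding sites), final | reagent = 50 nM FITC-LANA1-23 probe | medium = TEN-BT buffer, pH 7.5 | doses = single compound addition by pin transfer, 100 nL per well | timing = 10–45 min, room temperature | detection = fluorescence polarization | repeats = duplicate plates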
BasE inh: inhibitors of Acinetobacter baumannii siderophore enzyme BasE; purified BasE, fluorescence polarization binding displacement; AID 485350; inhibition, % (test concentration not listed); actives 0.1% (n = 84,000);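 active = both replicates above 25% with normal brightness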;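 note: 0% = negative plate control signal and 100% = positive plate control signal; stock transfer was 100 nL into about 30 µL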
* = called active by the depositor; / = no result given; & = joins results of further samples.

SMILES	KSHV LANA nucl	BasE inh
N#Cc1ccc(COc2cnnc3ccccc23)cc1	/	4.2
COCc1cc(C)nc(OCC2=NN(C(C)=O)C(c3cccc(OC)c3)O2)c1C#N (stereo not given)	-1.1	0.1
COC(=O)Cc1nc(C)cs1	/	1.5
O=C(CN1CCc2ccccc21)N1CCCc2ccccc21	0.37	/
CNS(=O)(=O)c1ccc(C(=O)NCC(=O)N2CCCC2c2ccc3c(c2)OCCCO3)cc1 (stereo not given)	/	-1.4
CSc1ncc(C(=O)NCCN(C)C)c(-c2ccccc2)n1	0.24	-0.9
O=c1[nH]c2ccc(NCc3ccc(Cl)cc3)cc2[nH]1	-1	-1.4
CN(CC(=O)N1CCCC1)S(=O)(=O)c1ccc2c(c1)c(=O)n(C)c(=O)n2C	0.09	-0.2
Nn1c(Cc2ccccc2)nnc1SCC(=O)Nc1ccccc1F	0.63	0.3
CCCNC(=O)c1cccc(Oc2ccccc2)c1	0.92	0.5
NC(=O)c1cc2ccccc2oc1=Nc1ccccc1	/	1.5
Cc1ccc(NC(=O)N2CC=C(c3c[nH]c4ccccc34)CC2)cc1	0.44	-7.5
Cc1cc(C)c(-n2c(SCc3nc4ccccc4s3)n[nH]c2=O)c(C)c1	/	0.7
CC(OC(=O)c1cccc2ccccc12)C(N)=O (stereo not given)	/	-0.1
O=C(c1cnn(-c2cccc(F)c2)c1-n1cccc1)N1CCc2ccccc21	/	5.2
COc1ccc(N(C)c2ncnc3onc(-c4ccc(Cl)cc4)c23)c(OC)c1	/	2.5
Cc1nnc(Nc2ccc(C(=O)N3CCCCC3)cc2)c2ccccc12	-0.14	-4.7
Cc1ccc(NNC(=O)c2c(-c3ccccc3)noc2C)cc1C	0.4	2.8
COC(=O)C1=C(C)N(c2ccccc2Cl)C(=O)/C1=C\c1cccs1	/	0.8
CCN(c1ccccc1C(=O)O)S(=O)(=O)c1ccc2c(c1)n(C)c(=O)n2C	-0.055	2.0
FC(F)Oc1ccccc1/C=N/n1cnc2ccccc21	/	-4.7
COCCN1C(=O)c2ccc(C(=O)Nc3ccccc3)cc2C1=O	0.57	2.8
CC(C)NC(=O)COCc1cc(-c2ccco2)on1	2.6	-3.9
CC(=O)N1N=C(N)SC1c1ccccc1 (stereo not given)	0.28	0.6
CC1(C)C(C)(C(=O)O)C12CCC2C(=O)NCc1ccco1 (stereo not given)	-0.32	-1.0

Rewritten bar-delimited: 5 of the compounds above.
compound | KSHV LANA nucl | BasE inh
Cc1ccc(NNC(=O)c2c(-c3ccccc3)noc2C)cc1C | 0.4 | 2.8
COC(=O)C1=C(C)N(c2ccccc2Cl)C(=O)/C1=C\c1cccs1 | / | 0.8
CCN(c1ccccc1C(=O)O)S(=O)(=O)c1ccc2c(c1)n(C)c(=O)n2C | -0.055 | 2.0
FC(F)Oc1ccccc1/C=N/n1cnc2ccccc21 | / | -4.7
COCCN1C(=O)c2ccc(C(=O)Nc3ccccc3)cc2C1=O | 0.57 | 2.8

Next section:
SMILES	KSHV LANA nucl	BasE inh
CNC1(C)[C@H]2CC[C@H](C2)C1(C)C (stereo not given in full)	0.98	/
COc1ccc(Cn2ccc3nc4ccn(Cc5ccc(OC)cc5)c(=O)c4cc3c2=O)cc1	0.33	0.9
Cc1cc(C)c(C#N)c(=O)[nH]1	/	0.3
COc1ncnc(NS(=O)(=O)c2ccc(N)cc2)c1OC	0.26&-1.2&-0.22	-1.9
O=C(COc1ccc2c(c1)OCO2)NCCC1=CCCCC1	/	1.3
CCc1ccc(OCC(N)=O)cc1	/	2.7
O=S(=O)(/C=C/c1ccccc1)N1CCN(Cn2cnc3ccccc32)CC1	/	4.3
CN(C(=O)COC(=O)c1ccc(=O)[nH]c1)C1CCCCC1	/	-0.1
O=C(CN1CCN(c2ncnc3scc(-c4ccc(Cl)cc4)c23)CC1)NC1CC1	/	-1.2
CCN1CCN(C(=O)/C(C#N)=N/Nc2cccc3c(=O)[nH][nH]c(=O)c23)CC1	/	1.9
CCOC(=O)C1(c2cn(C)c3ccccc23)Sc2ccccc2NC1=O (stereo not given)	/	-0.3
CCOC(=O)C1NC(=O)CC1c1ccccc1 (stereo not given)	0.14	1.2
N#Cc1ccccc1COC(=O)c1ccc(-n2cccc2)cc1	/	1.6
Cc1nn(CCC(N)=S)c2nc(-c3ccccc3)ccc12	/	0.5
NS(=O)(=O)c1ccc(CCNC(=O)c2ccc(N3CCCC3=O)cc2)cc1	/	-2.0
Cn1c(C(C#N)C(=O)c2ccc(-c3nc4ccccc4s3)s2)nc2ccccc21 (stereo not given)	/	5.4
O=C(Nc1ccccc1)NN1CC(=O)N(c2ccc(Cl)cc2)CC1=O	0.6	2.6
O=C(COC(=O)C(Cc1ccccc1)N1C(=O)c2ccccc2C1=O)c1ccc(Br)cc1 (stereo not given)	/	2.9
O=S(=O)(c1cccc(-c2nnc(Sc3ncnc4sc5c(c34)CCC5)o2)c1)N1CCCCC1	/	-1.0
C=CCn1c(CSc2nnc(-c3ccccc3)n2C)n[nH]c1=S	/	0.1
OC(CNCc1ccc(OC(F)(F)F)cc1)C(F)(F)F (stereo not given)	-1.3	/
CC1(C(=O)O)Sc2[nH]c(=O)sc2C2c3ccccc3OC(=O)C21 (stereo not given)	/	2.7
O=C(O)C1C2CCC(CC2)C1C(=O)N1CCN(S(=O)(=O)c2ccc(F)cc2)CC1 (stereo not given)	0.55	0.6
COc1cc(-c2nnc(SCc3nc4ccccc4s3)o2)cc(OC)c1OC	/	-0.9
Cc1cc(=O)oc2cc(NC(=S)N3CCCC3)ccc12	0.61	-1.2

Taken from the entries so far (5 entries):
SMILES	KSHV LANA nucl	BasE inh
OC(CNCc1ccc(OC(F)(F)F)cc1)C(F)(F)F (stereo not given)	-1.3	/
CC1(C(=O)O)Sc2[nH]c(=O)sc2C2c3ccccc3OC(=O)C21 (stereo not given)	/	2.7
O=C(O)C1C2CCC(CC2)C1C(=O)N1CCN(S(=O)(=O)c2ccc(F)cc2)CC1 (stereo not given)	0.55	0.6
COc1cc(-c2nnc(SCc3nc4ccccc4s3)o2)cc(OC)c1OC	/	-0.9
Cc1cc(=O)oc2cc(NC(=S)N3CCCC3)ccc12	0.61	-1.2

The list continues:
SMILES	KSHV LANA nucl	BasE inh
CCOc1cc(/C=C2\SC(=S)NC2=O)cc(Cl)c1OC(=O)c1ccc(OC)cc1	/	-0.5
Cc1c(Cl)cccc1NC(=O)CCn1cnnn1	-0.23	0.6
Cc1c(C(=O)O)sc2nc(-c3ccccc3)cn12	-0.95	0.1
O=C(c1cc(=O)c2ccccc2o1)N1CCN(c2n[nH]c(=O)[nH]c2=O)CC1	/	0.9
CC(C)CN(CC(C)C)c1nnc(NC(=O)NCc2ccco2)s1	-0.38	0.0
Cc1ccc(C(=O)Sc2n[nH]c(-c3cccs3)n2)cc1	/	0.9
CCC(=O)Nc1nc(-c2ccc3c(c2)CC(C)N3S(C)(=O)=O)cs1 (stereo not given)	-0.83	-0.3
CN(c1ncnc2onc(-c3ccc(F)cc3)c12)C1CCCCC1	/	-0.6
C/C(=N\NC(=O)CN1CCCC1=O)c1ccc(NC2=NCCCS2)cc1	/	1.2
O=C(Nc1cccc(Cl)c1)c1ccc(Cl)cc1	/	-0.4
CC(C)C[C@H](NC(=O)[C@@H](O)[C@H](N)Cc1ccccc1)C(=O)O	0.31&2.5	0.6
CC(C(=O)NC1(C#N)CCCCC1)N1CCN(S(=O)(=O)c2ccc(Br)s2)CC1 (stereo not given)	/	-0.9
O=C(NCc1ccccc1)C(=S)NC1CCCC1	-1	-0.8
CCN1C(=O)C2C(C1=O)N1C(c3ccccc3)C3C(=O)N(CC)C(=O)C3N1C2c1ccccc1 (stereo not given)	-0.57	4.5
CC1CCN(C(=S)SCC(=O)O)CC1	/	2.1
CCOC(=O)C1CCN(c2cc(C(=O)Nc3ccc(OCC)cc3)ccn2)CC1	1.7	-3.1
c1csc(-c2ccnc3nc(-n4cccc4)nn23)c1	0.25	/
CC1CCCC(C)N1C(=O)COC(=O)/C=C/c1ccccc1Cl (stereo not given)	/	2.2
O=C(O)CSc1nnc2c(n1)OC1(CCCC1)Nc1ccccc1-2	/	0.8
Cc1ccc(CCNc2ccccc2)c[n+]1[O-]	0.56	0.5
COc1ccccc1C(=O)N=C1SC2CS(=O)(=O)CC2N1c1ccccc1 (stereo not given)	-0.05	0.8
CCCn1c(=O)c(=O)[nH]c2c(=O)oc3ccccc3c21	0.1	1.1
O=c1cc(O)sc2ccccc12	0.6	-0.8
CN(C)S(=O)(=O)c1ccc(-c2nc3ccccc3s2)cc1	/	0.9
CCOc1ccc(/C(=N/O)C(C)NO)cc1 (stereo not given)	-0.23	1.1

Carrying on.
SMILES	KSHV LANA nucl	BasE inh
N#CCSc1nc2ccccc2c(=O)n1CCCC(=O)NCC1CCCO1 (stereo not given)	-0.64	-0.2
CC(OC(=O)c1ccc(S(=O)(=O)NCc2ccco2)cc1)C(=O)Nc1ncc(Cl)cc1Cl (stereo not given)	/	-0.6
COC(=O)c1cc(OC)c(OC)cc1NC(=O)c1nc(-c2ccccc2)oc1C	/	-0.4
N#CC(C#N)=C(N)/C(C#N)=C/c1cccs1	0.39	1.3
Cc1cccc(Nc2nc(N)nc(C(F)(F)F)n2)c1	-0.17	3.7
O=C(NC1CCCC1)C(c1ccccc1)N(Cc1cccs1)C(=O)c1csnn1 (stereo not given)	2.5	-2.5
O=C(O)c1ccccc1OCCN1CCCC1=O	-0.56	0.2
Cc1cc(=O)n(C)c(=O)n1CCCCO	/	1.0
CCOC(=O)c1cc(-c2ccc(C)cc2)n(CCC(=O)Nc2nccs2)c1C	0.18	0.2
COC(=O)C1=C(C)NC2=C(C(=O)CC(C)(C)C2)C1c1ccccc1 (stereo not given)	0.29	-0.1
CC(C1CC1)N(Cc1ccccc1)S(=O)(=O)c1cn(C)c(=O)n(C)c1=O (stereo not given)	/	0.1
NNC(=O)CN1CCCc2ccccc21	/	1.2
O=C1CSC(c2cccnc2)N1CCc1ccccn1 (stereo not given)	0.032	0.8
COCCn1c(N)c(C(=O)N2CCCC2)sc1=S	/	2.6
CCCCN(C)S(=O)(=O)c1csc(C(N)=O)c1	-0.75	-1.0
Cc1c(N=Cc2c(O)n(C)c(=O)c3ccccc23)c(=O)n(-c2ccccc2)n1C	-0.24	-27
CCN(CC)c1ccc(/C=c2\sc3ncnn3c2=O)cc1	/	12
COc1ccc(C2CC(=O)C3=C(C2)Nc2ccccc2N(C(C)=O)C3c2ccccc2)cc1 (stereo not given)	/	0.9
CC1Cc2ccccc2N1C(=O)COC(=O)C1CCN(C(=O)Nc2ccccc2)CC1 (stereo not given)	/	-2.4
Cc1ccc(N2C(=O)C(N3C(=O)c4ccccc4C3=O)C2c2ccc(N(C)C)cc2)cc1Cl (stereo not given)	/	1.0
O=C(NC(=S)Nc1ccc(S(=O)(=O)N2CCOCC2)cc1)c1ccc(Br)o1	0.22	3.3
O=C(Nc1ccc(N2CCN(Cc3ccccc3)CC2)cc1)c1ncoc1-c1cccs1	0.34	0.3
N#CC(C#N)=C(N)SCc1ccccc1	-0.34	/
OCCNCCSc1nnc(-c2ccccc2)n1-c1ccccc1	/	2.5
O=C(COC(=O)c1ccc2c(=O)n3c(nc2c1)CCC3)Nc1ccccc1	/	2.8

Other entries follow.
SMILES	KSHV LANA nucl	BasE inh
CCCn1nnnc1CSc1nnc(-c2cccs2)n1C1CC1	/	0.9
CC(C)C(C)(C#N)NC(=O)CSc1nc(-c2ccccc2)c(-c2ccccc2)o1 (stereo not given)	/	-1.1
Cc1ccnc2nc(C(=O)NCC3COc4ccccc4O3)nn12 (stereo not given)	/	-0.3
CCN(CC)C(=O)Cn1c(S(=O)(=O)C(C)C)nc2ccccc21	0.38	4.3
CC(C)(C)NC(=O)[C@H]1CC[C@H]2[C@@H]3CC[C@H]4NC(=O)C=C[C@]4(C)[C@H]3CC[C@]12C	0.14&0.34&-0.17	0.4
CC1(C)CC(=O)C2=C(C1)NC(=O)NC2c1ccc(Cl)cc1 (stereo not given)	/	-0.3
CCN1CCC(NCc2ccccc2Cl)CC1	-2	-0.1
CSc1nsc(SC)c1C(=O)NC(=O)N1CCSCC1	/	0.7
Cc1nc2sccn2c1-c1csc(Nc2cccc(Cl)c2C)n1	0.15	1.2
Cc1ccc2nc(CSc3nnc(COc4ccccc4Cl)o3)cn2c1	/	-1.5
CCOC(=O)C1CCCN(C(=O)CCCN2C(=O)COc3ccc(C)cc32)C1 (stereo not given)	1.7	-0.8
O=C1CCC(=O)N1CCSC(=S)N1CCCC1	-0.14	0.9
COc1ccc(OC)c(C(=O)CSc2nc3cccnc3n2C)c1	0.046	2.0
Nc1nc(-c2cccnc2)nn1C(=O)CCc1ccccc1	1.6	-2.8
Cc1ccc(S(=O)(=O)/C(C#N)=C/c2sccc2C)cc1	/	3.2
CC1CC(C)CN(C(=O)COC(=O)c2cccc(S(=O)(=O)N(C)C)c2)C1 (stereo not given)	/	-0.2
COC(=O)C1(CO)NC(c2ccccc2F)C2C(=O)N(c3ccccc3)C(=O)C21 (stereo not given)	-0.94	0.6
COC(=O)c1ccc(OC(=O)c2cc(C)sc2C)cc1	/	-0.3
Cc1c(C(=O)O)oc2ccccc12	/	2.6

Shown with values under each structure: four of the compounds above
The line under a structure holds: KSHV LANA nucl | BasE inh
COc1ccc(OC)c(C(=O)CSc2nc3cccnc3n2C)c1
 : 0.046 | 2.0
Nc1nc(-c2cccnc2)nn1C(=O)CCc1ccccc1
 : 1.6 | -2.8
Cc1ccc(S(=O)(=O)/C(C#N)=C/c2sccc2C)cc1
 : / | 3.2
CC1CC(C)CN(C(=O)COC(=O)c2cccc(S(=O)(=O)N(C)C)c2)C1 (stereo not given)
 : / | -0.2

Look-ups from the entries so far.
For BasE inh, CSc1nsc(SC)c1C(=O)NC(=O)N1CCSCC1 shows 0.7
For BasE inh, Cc1ccc(S(=O)(=O)/C(C#N)=C/c2sccc2C)cc1 shows 3.2

Not all compounds are listed; the hit share may differ from the screen's.
